# Screening results from PubChem.
# HPGD block: blocks human HPGD enzyme activity; P15428; purified HPGD, NADH fluorescence kinetic, PGE2 substrate; Potency, µM, without a hit: at the top dose activity change, negative = inhibition, most hits filed as inhibitors; actives 4.3% (n = 150,000); AID 894; active = well fitted inhibition curve with a large enough effect (not every such curve was filed as active); inconclusive = small, poorly fitted or top-dose-only effect, or another doubt; inactive = no such curve, though single readings can be large or run the other way;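 note: top concentration of the series not given in the record; plate controls included wells without enzyme; inactives centre near -10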
# Target sequence (P15428 whole entry, looked up): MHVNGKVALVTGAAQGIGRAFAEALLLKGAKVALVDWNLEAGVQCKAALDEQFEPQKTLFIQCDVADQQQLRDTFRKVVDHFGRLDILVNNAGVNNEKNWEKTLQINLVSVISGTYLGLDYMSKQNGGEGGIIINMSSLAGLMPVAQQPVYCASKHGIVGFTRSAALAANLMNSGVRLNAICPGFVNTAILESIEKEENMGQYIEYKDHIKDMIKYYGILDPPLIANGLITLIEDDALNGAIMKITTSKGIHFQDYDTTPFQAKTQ
#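 NADH formation kinetics: reaction with 30 uM PGE2 and 1 mM NAD+ (final), 20 nM enzyme, Tris-HCl pH 8 with Tween 20, after 15 min compound preincubation at room temperature. Fluorescence change, last versus first of five reads.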
# * marks the source's active call; other numbers are inactive results; u = inconclusive; & = joins results of further samples. % is set by controls: 0 for no effect and ±100 for the full control effect; potency is the fitted concentration of half-maximal effect.
Compound | HPGD block
CCc1ccc(CC)c(S(=O)(=O)Nc2ccc(C(=O)O)c(O)c2)c1 | u
CC(=O)c1cc(C(=O)c2ccccc2)sc1Nc1ccccc1 | -16.8%
CCOC(=O)C1CCN(C(=O)c2ccc(Br)o2)CC1 | -12.6%
CCC(CC)C(=O)Nc1cccc(/C(C)=N/NC(=O)c2c(Br)cnn2C)c1 | -6.6%
Cc1nc2ccccc2nc1OCC(=O)NCc1ccc2c(c1)OCO2 | -16.6%
CCn1c(=O)cc(OCC(=O)N2CCN(C(=O)c3ccco3)CC2)c2ccccc21 | -12.2%
O=S(=O)(/N=C(/Nc1ccc(F)c(F)c1F)c1ccccc1)c1ccccc1 | -6.2%
C=CCn1c(CCC(=O)O)ccc1-c1ccccc1 | u
O=C(CN1C(=O)c2cccc3cccc1c23)NCc1ccncc1 | -13.5%
CC(=O)c1ccccc1[N+](=O)[O-] | -5.5%
O=C(CSc1nnc2ccccn12)Nc1ccccc1C(=O)NC1CC1 | -25.5%
COCCn1c(C)cc(C2=NNC(=Nc3ccccc3)SC2)c1C | -14.8%
O=C(NNC(=S)Nc1cccc(Cl)c1)c1ccccc1OC(F)F | -12.0%
CC(C)c1ccc2oc(-c3cc(N)ccc3O)nc2c1 | -29.9%
CN(C)S(=O)(=O)c1ccc2nc(NC(=O)c3cccnc3)sc2c1 | -7.9%
Cc1ccc(-c2nnc(SCC(=O)NC(=O)Nc3ccc(C)cc3C)n2N)cc1 | -4.4%
COc1cc(C2CC(=O)Oc3cc(C)c(Cl)cc32)cc(OC)c1OC (stereo not given) | -7.3%
O=C1/C(=C\c2ccccc2)CCc2c1[nH]c1ccccc21 | -9.5%
Cc1ccc(C(=O)NC(=S)Nc2cccc3c(C)cc(C)nc23)cc1 | -7.9%
COc1ccc(C(=O)NN(C)c2nc(-c3ccccc3)nnc2C(F)(F)F)cc1 | -19.9%
CCn1nnc(NC(=O)COc2cc(C)ccc2C(C)C)n1 | -4.0%
O=C(/C=C(\O)c1ccc(Cl)cc1)C(=O)NNC(=O)C(O)(c1ccccc1)c1ccccc1 | -6.7%
COc1ccc(/C=C(\C#N)C(=O)NCC2CCCO2)cc1OC (stereo not given) | 22.4µM*
Cc1ccnc(SCc2nc3ccccc3s2)n1 | -20.7%
O=C(CN1CCOCC1)Nc1ncc(Cc2cccc3ccccc23)s1 | -12.5%
CCOC(=O)c1c(-c2ccccc2)nc2ccc(C)cn12 | -4.7%
O=C(O)c1cc(-c2ccccc2)on1 | -28.2%
COc1ccc(-n2c(=O)c(C)nc3cncnc32)cc1 | -29.6%
O=C(C1CCN(Cc2ccc(F)cc2)CC1)N(CCc1ccccc1)Cc1ccccc1 | -10.3%
CC1(C)C2CCC1(CS(=O)(=O)N1CCCc3ccccc31)C(=O)C2 (stereo not given) | -12.7%
COC(=O)c1nn(-c2ccccc2)c(Sc2ccc(C)cc2)c1/C=N/O | -0.4%
COc1ccc(/C=C(/NC(=O)c2ccc(OC)cc2)C(=O)NCCc2c[nH]c3ccccc23)cc1 | -5.2%
O=C(O)c1ccc(Cl)c(S(=O)(=O)Nc2ccccc2)c1 | -1.9%
CN(C)c1ncc(C(=O)O)cn1 | -19.7%
CCc1sc(NC(=O)CN2CCOCC2)nc1-c1ccccc1 | 6.4%
Cc1nn(-c2ccccc2)c(Cl)c1C(=O)N(C)c1nc(-c2ccc(F)cc2)cs1 | -15.0%
CCn1c(SCC(=O)Nc2ccc(N3CCOCC3)c(Cl)c2)nnc1-c1ccc(N)cc1 | -2.4%
CCCC(=O)c1ccc(N2CCOCC2)c(F)c1 | -21.2%
Cc1ccc(CC2CC(=O)N(CC(=O)O)C2=O)cc1 (stereo not given) | -8.9%
NC(=O)C1CCN(C(=O)c2cc(S(=O)(=O)N3CCOCC3)c(Cl)cc2Cl)CC1 | -4.1%
Cc1ccc(S(=O)(=O)N2CCC(=O)N(C(COC(=O)Nc3ccccc3)Cc3ccccc3)CC2)cc1 (stereo not given) | -16.3%&-12.8%
Nn1c(SCC(=O)NCc2ccc3c(c2)OCO3)nnc1C1CC1 | -17.8%
Cc1cc(N2CCOCC2)nc(SCc2c(Cl)cccc2Cl)n1 | -14.4%
CC(O)(CS(=O)(=O)Cc1ccc(Cl)cc1)C(=O)Nc1cccc(C(F)(F)F)c1 (stereo not given) | -2.0%
Nc1c(S(=O)(=O)c2ccccc2)nnn1-c1ccccc1 | -10.1%
NC(Cc1ccc(Cl)cc1)C(=O)O (stereo not given) | -11.4%&-12.0%
CC(=O)c1cccc(NC(=O)C2CCCN(S(=O)(=O)c3ccccc3)C2)c1 (stereo not given) | -12.9%
O=C(CSc1nnc(SCc2ccc(Cl)cc2)s1)N1CCOCC1 | -25.0%
Oc1ccccc1-c1nnc(-c2ccc(C(F)(F)F)cc2)o1 | -25.7%
O=C(N/N=C/c1cc2c(cc1Cl)OCO2)c1ccncc1 | -12.1%
CC1(OC(=O)C2CCCC2)C(=O)C=C2C=C(c3ccsc3)N(C(CO)CO)C=C2C1=O (stereo not given) | -10.6%
Cc1cc(N2CCOCC2)nc(-c2ccc([N+](=O)[O-])cc2)n1 | 3.5%
COc1cccc(C2C3=C(CCCC3=O)Nc3nc(-c4cc(OC)c(OC)c(OC)c4)nn32)c1 (stereo not given) | -21.1%
CCCc1cc(C(N)=O)c(NC(C)=O)s1 | -3.1%
COc1ncnc2sc(-c3ccccc3)cc12 | u
Cc1ccccc1Oc1nc2ccccn2c(=O)c1/C=C(\C#N)C(=O)Nc1c(C)n(C)n(-c2ccccc2)c1=O | -15.2%
CCOC(=O)c1cnc(SCc2nc(N)nc(Nc3ccccc3)n2)nc1N | -8.0%
Clc1ccc(-c2csc(=Nc3cccnc3)n2CCCn2ccnc2)cc1Cl | 3.1%
Clc1ccc(Cn2c(-c3cccnc3Cl)nc3ccccc32)cc1 | -10.0%
Oc1ccc(F)cc1-c1cc(-c2ccc3c(c2)OCCO3)n[nH]1 | u

# (cont.)
Compound | HPGD block
Cc1cc(C)n(-c2ccc(C(=O)NC(C)C)cc2)n1 | 20µM*
O=C(COC(=O)/C=C/c1ccco1)Nc1cccc([N+](=O)[O-])c1 | -14.0%
CCCCOc1ccc(C(=O)N/C(=C\c2ccc(OC)cc2)C(=O)OCc2ccco2)cc1 | -21.1%
CCc1c(C)nc2ncnn2c1N1CCC(C(=O)Nc2ccc(C)cc2)CC1 | -20.5%
CNc1nc2sc3c(c2c(=O)n1C)CC(C)(C)SC3 | -25.1%
CCN1CCCC1Cn1c(-c2ccccc2)nc2c(NCc3ccccc3)nc(C)nc21 (stereo not given) | u
CCCCCNC(=O)c1cccnc1SCC(=O)Nc1ccccc1OC | 10µM*
O=C(Nc1n[nH]c(C2CCCCC2)n1)C1CCCCC1 | -6.5%
O=C(NCC(c1ccco1)N1CCN(c2ccccc2F)CC1)OCc1ccccc1 (stereo not given) | -9.3%
Cc1c(NC(=O)Nc2c(Cl)cccc2Cl)c(=O)n(-c2ccccc2)n1C | -0.7%
Cc1ccc(S(=O)(=O)c2nc(C(C)(C)C)oc2N2CCOCC2)cc1 | -9.7%
CCOC(=O)N/N=C/c1c(F)cccc1F | -8.0%
O=c1c(-c2ccc(F)cc2)nc2cnc(N3CCOCC3)nc2n1C[C@H]1CCCO1 | -24.0%
CCOc1cc2[nH]c(=O)n(CCC(=O)NCCc3ccc(OC)c(OC)c3)c(=O)c2cc1OCC | -18.3%
Cc1cccc(NC(=S)N(CCN(C)C)Cc2cc3cccc(C)c3[nH]c2=O)c1 | -2.7%

# Some of the entries so far, with each value named:
CNc1nc2sc3c(c2c(=O)n1C)CC(C)(C)SC3
  HPGD block: -25.1%
CCN1CCCC1Cn1c(-c2ccccc2)nc2c(NCc3ccccc3)nc(C)nc21 (stereo not given)
  HPGD block: u
CCCCCNC(=O)c1cccnc1SCC(=O)Nc1ccccc1OC
  HPGD block: 10µM*

# Grouped by structure, the entries above containing bromine.
Compound | HPGD block
CCOC(=O)C1CCN(C(=O)c2ccc(Br)o2)CC1 | -12.6%
CCC(CC)C(=O)Nc1cccc(/C(C)=N/NC(=O)c2c(Br)cnn2C)c1 | -6.6%

# The listing continues:
Compound | HPGD block
Cc1ccc(N/C=C/C(=O)C(C)(C)C)c(O)c1 | -29.6%
COc1ccc(C(=S)Nc2ccccc2)cc1 | -13.9%
CCN(CC)c1nc2ccccc2nc1C(C#N)C(=O)NCCCOC (stereo not given) | u
Cc1ccc(-n2c(C)cc(C)c(C#N)c2=O)cc1Cl | -11.3%
Cc1cc(=O)[nH]c(-n2nc(C)cc2C)n1 | -12.0%
C=CCc1ccccc1OCC(O)CN1CCN(c2ccccc2F)CC1 (stereo not given) | -3.9%
CCNc1ccc(C2(O)C(=O)c3ccccc3C2=O)cc1 | -13.0%
O=C(c1cccnc1)N1C2C=CC(C2)C1(C(F)(F)F)C(F)(F)F (stereo not given) | -3.5%
CC(=O)COc1ncn(-c2ccccc2)n1 | -12.5%
O=C(CSc1nc2ccccc2n1CC(=O)N1CCCC1)Nc1ccc2c(c1)OCO2 | -11.7%
COc1cc([N+](=O)[O-])ccc1N/C=C/C(=O)c1cccs1 | -6.4%
Cc1ccc(C(C)C)c(OCC(=O)N2CCOCC2)c1 | 0.2%
COc1ccccc1-c1nc(NCc2cnc(C)cn2)c2ccccc2n1 | u
O=C(NCCc1ccccc1F)/C(=C/c1cccnc1)NC(=O)c1ccccc1 | -6.1%
CCOC(=O)c1sc(N2N=C(C)/C(=C\c3ccc(OCC(=O)OC)cc3)C2=O)nc1C | 28.2µM*

# Molecules above with a CF3 group (4):
Compound | HPGD block
COc1ccc(C(=O)NN(C)c2nc(-c3ccccc3)nnc2C(F)(F)F)cc1 | -19.9%
CC(O)(CS(=O)(=O)Cc1ccc(Cl)cc1)C(=O)Nc1cccc(C(F)(F)F)c1 (stereo not given) | -2.0%
Oc1ccccc1-c1nnc(-c2ccc(C(F)(F)F)cc2)o1 | -25.7%
O=C(c1cccnc1)N1C2C=CC(C2)C1(C(F)(F)F)C(F)(F)F (stereo not given) | -3.5%

# Printed as active in HPGD block (from the list above):
Compound | HPGD block
COc1ccc(/C=C(\C#N)C(=O)NCC2CCCO2)cc1OC (stereo not given) | 22.4µM*
Cc1cc(C)n(-c2ccc(C(=O)NC(C)C)cc2)n1 | 20µM*
CCCCCNC(=O)c1cccnc1SCC(=O)Nc1ccccc1OC | 10µM*
CCOC(=O)c1sc(N2N=C(C)/C(=C\c3ccc(OCC(=O)OC)cc3)C2=O)nc1C | 28.2µM*

# Additional compounds follow.
Compound | HPGD block
CCOC(=O)c1ccc(NC(=O)C2(c3ccccc3)CCCC2)cc1 | -4.9%
O=C(CSc1nnc(Cn2c(=O)sc3ccccc32)n1-c1ccccc1)N1CCCCCC1 | u
COc1ccc(C2CC(c3cccs3)=NN2C(=S)Nc2ccccc2)cc1OC (stereo not given) | -12.6%
CC1(C)CC(=O)C2=C(C1)NC(=O)CC2c1cccc(F)c1 (stereo not given) | -18.2%
Cc1ccc(CN(C(=O)c2ccco2)C(C(=O)NC2CCCC2)c2ccc(N3CCOCC3)cc2)cc1 (stereo not given) | 5.8%
Cc1c(C(=O)O)sc(=S)n1CCOc1ccccc1 | -27.5%
COc1ccc(C(=O)N2CCC3(CC2)CN(c2cccc(-c4ccccc4)c2)C3)cc1 | u
COc1ccc(Cl)c(S(=O)(=O)N2CCCC2)c1 | -6.9%
Cc1cc(=O)n2nc(N3CCCC(C(=O)N4CCN(C)CC4)C3)sc2n1 (stereo not given) | -13.2%
Cc1cc(C(=O)NCCCn2ccnc2)sc1-c1ccccc1 | -26.9%
CC(C)[C@H](NC(=O)c1ccccc1)C(=O)OCC(=O)N1CCCc2ccccc21 | -9.3%
COc1ccc(C(=O)Nc2cc3c(cc2C#N)OCO3)cc1S(=O)(=O)N1CCN(C)CC1 | 2.4%
CC1=CC(C)(C)C(C(=O)O)C(C(=O)O)C1 (stereo not given) | -1.7%
COc1ccc(C(=O)NC2CCCCCC2)cc1S(=O)(=O)Nc1ccc(Br)cc1 | -21.3%
COc1cccc(CN(Cc2cccnc2)S(=O)(=O)c2ccc(-n3cnnn3)c(C)c2)c1OC | -2.8%
COC(=O)c1ccccc1NC(=O)c1ccc(COc2ccc(C)c(C)c2)o1 | u
Cc1c([N+](=O)[O-])c([N+](=O)[O-])nn1CC(=O)N1CCCCC1 | -2.7%

# Only part of the results is shown; the hit share may differ from the screen's.
